Screens: PubChem BioAssay, several laboratories
RGS16-Gao HTS: RGS16-Galphao interaction regulator (human). binding response (% of control), % at 10 µM. AID 1441. 220,000 compounds, 0.38% hits. O15492+P09471. bead-based flow cytometry RGS16-Galphao binding, fluorescence; actives lie on both sides;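 active = below 25% or above 175%, edge rows of some plates excepted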;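 also: Galphao activated by GDP with aluminum fluoride before binding; 100% = wells without compound and 0% = beads without RGS; some results beyond the cut were filed as inactive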
Target sequence (O15492 whole entry, looked up): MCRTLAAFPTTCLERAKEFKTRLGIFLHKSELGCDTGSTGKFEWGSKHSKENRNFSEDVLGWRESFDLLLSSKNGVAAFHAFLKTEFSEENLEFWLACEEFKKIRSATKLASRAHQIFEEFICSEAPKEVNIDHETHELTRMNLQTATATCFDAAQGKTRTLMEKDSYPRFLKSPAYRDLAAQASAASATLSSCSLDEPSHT
Target sequence (P09471 whole entry, looked up): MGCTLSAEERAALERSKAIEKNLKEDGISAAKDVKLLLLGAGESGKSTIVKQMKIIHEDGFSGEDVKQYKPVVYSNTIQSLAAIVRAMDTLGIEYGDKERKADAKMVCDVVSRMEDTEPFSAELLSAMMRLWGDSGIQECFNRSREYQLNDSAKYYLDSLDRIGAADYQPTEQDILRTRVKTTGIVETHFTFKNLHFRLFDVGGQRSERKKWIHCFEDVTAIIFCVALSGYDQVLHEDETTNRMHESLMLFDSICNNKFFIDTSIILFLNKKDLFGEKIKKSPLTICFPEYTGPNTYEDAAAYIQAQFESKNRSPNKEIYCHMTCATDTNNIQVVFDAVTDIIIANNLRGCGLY
HSV augment: HSV replication enhancement; HSV replication augmentation in cells, fold increase; maximum fold increase; 220,000 compounds, 0.005% hits;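 active = peak rise of 1.5-fold or more in the series; tested in PC3 cells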;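 also: first round at 10 µM; read as green reporter fluorescence; hits show the peak of a series up to 25 µM; 1 = signal of infected wells without compound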
INS promoter inh: TRM-6 insulin promoter activity inhibition. inhibition, % at 2 µM. TRM-6 cells (human fetal islet line), insulin promoter-eGFP reporter, imaging; reporter expression induced with tamoxifen. 130,000 compounds, 0.9% hits;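 active = inhibition above the mean plus 3 SD, with well images judged a real hit on visual review, cut at about 60% in these data, passing the limit was not always enough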
PKD1 kinase inh: inhibitors of human PKD1 kinase. PKD1 kinase fluorescence polarization assay. inhibition, %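 (about 10 µM by stock and volumes)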. 200,000 compounds, 0.056% hits;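 active = inhibition of 50% or more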;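 also: controls were vehicle for no effect and a reference inhibitor for full effect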
GALR2 ag: activates the human galanin receptor 2. GALR2-expressing cells, agonist activation read-out. 140,000 compounds, 0.48% hits. activation, %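 (tested at 5 µM)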;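 active = above mean plus 3 SD of all compounds, about 5% in these data, not always enough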;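 also: 0% = vehicle buffer wells and 100% = reference agonist at full effect; tested in CHO reporter cells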
Target sequence (O43603 whole entry, looked up): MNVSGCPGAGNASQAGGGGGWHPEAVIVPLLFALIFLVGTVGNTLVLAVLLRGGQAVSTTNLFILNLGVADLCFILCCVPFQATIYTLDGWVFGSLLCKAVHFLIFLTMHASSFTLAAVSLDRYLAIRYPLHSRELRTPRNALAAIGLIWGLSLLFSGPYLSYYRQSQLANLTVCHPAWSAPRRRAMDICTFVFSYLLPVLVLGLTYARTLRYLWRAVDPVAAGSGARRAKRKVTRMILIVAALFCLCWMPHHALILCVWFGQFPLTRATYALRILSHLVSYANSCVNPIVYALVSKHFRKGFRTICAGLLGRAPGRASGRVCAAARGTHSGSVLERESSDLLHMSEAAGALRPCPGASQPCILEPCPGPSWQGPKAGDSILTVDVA
INS promoter inh cell count: further read-out of INS promoter inh, marked with its call; normalized cell count, %; measured here: cell count, toxicity; reference of the scale not given here;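 cells exposed to compound for 48 h; stained nuclei by imaging scaled within each plate; lower means fewer cells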
HSV augment primary fold: recorded beside HSV augment, whose call it bears; fold increase; compound at 10 µM; measured here: primary screen fold increase 10 uM; tested in PC3 cells;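 GFP signal in the first replicate; 1 = infected wells without compound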
* hit, by the source's call; i = inactive; · = no result given.

Value order – RGS16-Gao HTS | HSV augment | HSV augment primary fold | INS promoter inh | INS promoter inh cell count | PKD1 kinase inh | GALR2 ag
> O=C(N/N=C/c1ccncc1)c1nc(-c2ccccc2)n2c1CCCCC2
  88 | i | 1.1 | 3 | 95 | -4 | -0.3
> CCOC(=O)N1CCN(C(=O)Cn2ncc3ccccc32)CC1
  76 | i | 0.79 | -80 | 61 | 0 | -1.6
> O=C(CNC(=O)c1cccs1)N/N=C/c1ccco1
  99 | i | 0.92 | · | · | 0 | ·
> CC(C)(C)CN1C(=O)C(=O)NC[C@@H]1Cc1ccc(O)cc1
  97 | i | 0.87 | · | · | · | ·
> O=C(O)c1cc([N+](=O)[O-])c(NCc2cccnc2)c([N+](=O)[O-])c1
  104 | i | 0.81 | · | · | -8 | ·
> COc1ccc(NC(=O)c2nc[nH]c2C(=O)N[C@@H](C)c2ccccc2)cc1
  97 | i | 0.91 | · | · | · | ·
> CN(Cc1ccccc1)c1ccc(C(CC(N)=O)NC(=O)Cc2ccc(Br)cc2)cc1[N+](=O)[O-] (stereo unspecified)
  101 | i | 0.85 | · | · | · | ·
> CC(=O)Nc1ccc(C(=O)CSc2nc3ccccc3n2CC(=O)N2CCCC2)cc1
  100 | i | 0.98 | 18 | 125 | 7 | -1.1
> COc1ccc(C)cc1NC(=O)NCc1ccccc1F
  101 | i | 1.1 | -37 | 77 | -3 | ·
> O=C(NCc1ccc(Cl)cc1)C1=Cc2cc(Cl)ccc2OC1
  103 | i | 1 | 4 | 142 | -13 | -2.2

Three compounds out of the list above, sorted by their value in PKD1 kinase inh, lowest first:
| compound | RGS16-Gao HTS | HSV augment | HSV augment primary fold | PKD1 kinase inh | GALR2 ag |
| --- | --- | --- | --- | --- | --- |
| O=C(O)c1cc([N+](=O)[O-])c(NCc2cccnc2)c([N+](=O)[O-])c1 | 104 | i | 0.81 | -8 | · |
| O=C(N/N=C/c1ccncc1)c1nc(-c2ccccc2)n2c1CCCCC2 | 88 | i | 1.1 | -4 | -0.3 |
| O=C(CNC(=O)c1cccs1)N/N=C/c1ccco1 | 99 | i | 0.92 | 0 | · |

The list goes on.
Value order – RGS16-Gao HTS | HSV augment | HSV augment primary fold | INS promoter inh | INS promoter inh cell count | PKD1 kinase inh | GALR2 ag
> FC(F)(F)c1nnc2sc(-c3ccccn3)nn12
  103 | i | 1.1 | · | · | -15 | -0.8
> CCOc1cccc(-c2nc(C(N)=O)c3[nH]c(=O)n(-c4cccc(Cl)c4)c3n2)c1O
  97 | i | 0.6 | · | · | 3 | -0.7
> Cc1ccc(-c2cn3cccnc3n2)cc1
  103 | i | 0.91 | 23 | 54 | -1 | ·
> CCNC(=S)N/N=C/c1ccco1
  102 | i | 0.97 | 38 | 65 | 2 | -0.5
> CCOc1ccccc1NC(=O)CSc1nc2c(c(=O)n1C)SC(C)C2 (stereo unspecified)
  103 | i | 0.91 | · | · | -4 | -0.4
> Cc1cccc(NCc2ccc(O)c3ncccc23)c1
  100 | i | 0.89 | · | · | -2 | ·
> COC(=O)c1cc(C(=O)OC)cc(-n2c(C)cc(C(=O)COC(=O)CNS(=O)(=O)c3ccc(C)cc3)c2C)c1
  104 | i | 1.1 | -13 | 179 | 1 | -1.0
> CC12CCC3(CO)COC(c4ccccc4O1)C2C3 (stereo unspecified)
  92 | i | 0.77 | 35 | 119 | 7 | -2.2
> CCN(CC)CCCC(C)NC(=O)c1cccc(S(=O)(=O)N2CCc3ccccc32)c1 (stereo unspecified)
  98 | i | 0.95 | · | · | -13 | ·
> O=c1c2ccccc2nc(-c2ccc(Br)cc2)n1Cc1ccccc1
  86 | i | 1.2 | -110 | 118 | -1 | -2.1
> C=CCn1c(=O)c2ccccc2n2c(SC(C)C(=O)Nc3nc(-c4ccccc4)cs3)nnc12 (stereo unspecified)
  102 | i | 1 | -14 | 164 | -6 | -2.7
> O=C(COc1ccc([N+](=O)[O-])cc1)NNC(=O)c1cccs1
  95 | i | 1.1 | · | · | 8 | ·
> O=C(c1cccs1)N(c1ccc(F)cc1)C1C=CS(=O)(=O)C1 (stereo unspecified)
  43 | i | 1 | · | · | -9 | ·
> O=C1S/C(=C\c2ccc(O)c([N+](=O)[O-])c2)C(=O)N1Cc1cccc([N+](=O)[O-])c1
  102 | i | 1 | · | · | 1 | ·
> O=C(Nc1ccc2c(c1)OCCO2)c1ccc2ccccc2n1
  102 | i | 0.98 | · | · | -5 | ·
> CS(=O)(=O)N1CCCC(C(=O)Nc2ccc(Br)cc2F)C1 (stereo unspecified)
  99 | i | 1 | · | · | -1 | ·
> Cc1c(NC(=O)CN2C(=O)c3ccccc3C2=O)c(=O)n(-c2ccccc2)n1C
  108 | i | 0.94 | 14 | 102 | 1 | 0.1
> COc1ccc(NC(=S)c2ccc(N(C)C)cc2)cc1
  105 | i | 0.94 | 6 | 121 | -8 | -0.4
> Cc1c(N=Cc2ccc(O)c(Br)c2)cccc1[N+](=O)[O-]
  109 | · | · | 42 | 52 | -10 | -0.4
> c1ccc(-c2cn3c(n2)SCC3)cc1
  99 | i | 0.75 | 38 | 136 | 1 | -1.7
> Cc1nn(-c2ccc(C(=O)O)cc2)c(N)c1-c1ccccc1
  107 | · | · | 30 | 174 | -10 | -2.3
> COC(=O)C(NC(=O)COc1ccccc1)(Nc1nc2c(s1)CCCC2)C(F)(F)F (stereo unspecified)
  99 | i | 0.94 | -5 | 151 | 0 | 0.1
> Cc1cccc(C)c1NC(=O)N1CCC(n2cnc3ccccc32)CC1
  128 | i | 0.97 | 31 | 112 | -1 | -2.9
> COc1ccccc1Nc1nc(-c2sc(NC(=O)c3cccc(Cl)c3)nc2C)cs1
  103 | i | 0.87 | 0 | 158 | -13 | -2.6
> Cc1ccc(S(=O)(=O)Nc2cc(C(C)C)c(O)cc2C)cc1
  98 | i | 0.85 | -2 | 124 | 2 | -2.6
> Cc1cncn1CCc1nc2c3ccccc3nc(=S)n2[nH]1
  · | · | · | -13 | 168 | 0 | -0.3
> COC(=O)c1ccc(CSC2=NCCS2)cc1
  109 | i | 0.87 | 7 | 110 | -15 | -0.4
> CCCS(=O)(=O)c1nnnn1-c1cccc(OC)c1
  48 | i | 0.45 | 16 | 77 | 5 | -1.4
> CCN(CC)S(=O)(=O)c1ccc(N2CCCCC2)c(C(=O)Nc2ccccc2N2CCOCC2)c1
  99 | i | 0.88 | 21 | 166 | -10 | -0.2
> CCc1sc(C(=O)N2CCN(S(C)(=O)=O)CC2)cc1Br
  112 | i | 0.97 | -33 | 99 | -2 | -1.8
> Cc1cc(C(F)F)nn1CC(=O)Nc1cc([N+](=O)[O-])ccc1F
  100 | i | 0.92 | -8 | 143 | 8 | 0.8
> Cc1ccccc1-n1c(SCC(=O)Nc2ccccc2)nc2nc3c(cc2c1=O)CCCC3
  98 | i | 0.83 | 11 | 145 | -3 | 1.1
> COc1ccc(OC)c(-n2c(=S)[nH]c3c(sc(=S)n3-c3ccccc3C)c2=O)c1
  100 | i | 0.94 | 39 | 102 | 5 | ·
> COc1ccc2nc(SCC(=O)Nc3ccccc3)[nH]c2c1
  102 | i | 0.97 | 23 | 97 | -9 | -1.1
> CN(C)C(CNC(=O)c1cccs1)c1cccnc1 (stereo unspecified)
  98 | i | 0.92 | · | · | 1 | 0.6
> Nc1ccc2nc(SCC(=O)N3CCOCC3)sc2c1
  99 | i | 0.9 | 80* | 53* | 7 | ·
> CCC(=O)Nc1ccc(NC(=O)CSc2nnnn2CC)cc1C
  102 | i | 1 | -7 | 179 | 2 | -2.7
> COc1ccc(/C=C2\N=C3CCCCCN3C2=O)cc1OC
  98 | i | 0.99 | -46 | 76 | -6 | -0.4
> Cc1cc(C)nc(NCCO)n1
  99 | i | 0.93 | 7 | 121 | 1 | ·
> CC12CCC(c3c(C(=O)Nc4nccs4)nn(-c4ccccc4)c31)C2(C)C (stereo unspecified)
  170 | i | 0.93 | · | · | -15 | -2.2
> CC(C)(C)c1ccc(-c2nc(C=O)c3ccccn23)cc1
  99 | · | · | · | · | 0 | -2.2
> Cc1nc(C(=O)NNC(=O)c2ccc(Cl)cc2)c(C(F)(F)F)o1
  102 | i | 0.72 | · | · | · | ·
> Cc1ccc(C)c(NC(=O)/C(C#N)=C/c2cn(CC(=O)NCc3ccco3)c3ccccc23)c1
  114 | i | 0.85 | 22 | 72 | 0 | 70*
> NC(=O)SCC(=O)Nc1ccccc1C(=O)O
  91 | i | 1 | · | · | · | ·
> COc1ccc(CSc2nnnn2-c2ccccc2)cc1
  94 | · | · | 3 | 67 | 1 | -1.6
> O=C(CSc1nnc2c(n1)[nH]c1ccc(F)cc12)N1CCOCC1
  97 | i | 1.1 | · | · | -2 | ·
> Cc1ccc(S(=O)(=O)NCC(=O)N/N=C/c2ccc(Cl)cc2Cl)cc1
  29 | i | 1.2 | · | · | 6 | -0.1
> Cc1ccc(N=Cc2cc3c(cc2O)OC(N)=C(C#N)C3c2ccccc2)cc1 (stereo unspecified)
  101 | i | 1.2 | · | · | -12 | 0.5
> CCCCn1c(=O)[nH]c2nc3cc(NC(C)=O)ccc3nc2c1=O
  99 | i | 1.2 | · | · | · | ·
> CCCCn1c(SCc2cccnc2)nc2c1c(=O)n(C)c(=O)n2C
  69 | i | 0.87 | -62 | 100 | -5 | 0.0

GALR2 ag: entries above that show a hit.
| Molecule | RGS16-Gao HTS | HSV augment | HSV augment primary fold | PKD1 kinase inh | GALR2 ag |
| --- | --- | --- | --- | --- | --- |
| Cc1ccc(C)c(NC(=O)/C(C#N)=C/c2cn(CC(=O)NCc3ccco3)c3ccccc23)c1 | 114 | i | 0.85 | 0 | 70* |

The results go on:
Value order – RGS16-Gao HTS | HSV augment | HSV augment primary fold | INS promoter inh | INS promoter inh cell count | PKD1 kinase inh | GALR2 ag
> COc1ccc(N2CCN(C(=O)c3ccc(C(C)(C)C)cc3)CC2)cc1
  98 | i | 0.97 | 60 | 94 | -5 | -0.5
> CCCCOC(=O)C(C)Nc1n[nH]c(=O)[nH]c1=O (stereo unspecified)
  100 | i | 1 | 13 | 94 | -9 | -2.7
> COc1cccc(C2Nc3cc(Cl)c(S(N)(=O)=O)cc3S(=O)(=O)N2)c1 (stereo unspecified)
  98 | · | · | -14 | 84 | -5 | -0.8
> Cc1csc(NC(=O)CSc2nnc(-c3ccc(S(=O)(=O)N4CCCC4)cc3)o2)n1
  102 | i | 0.79 | 0 | 101 | -2 | -1.4
> NC1=NC[C@@H](Cc2ccc(O)cc2)N1CCCCC1CCCCC1
  99 | i | 0.63 | · | · | · | ·
> O=C(CC1C(=O)NCCN1C(=O)Nc1ccc(F)cc1F)Nc1cc(Cl)ccc1Cl (stereo unspecified)
  108 | i | 0.96 | · | · | · | ·
> COC(=O)c1ccc(CN2C(=O)NC3(CCCCC3)C2=O)cc1
  101 | i | 1.1 | -17 | 122 | 0 | ·
> O=C1CCCc2c1cc(C(=O)NCc1ccco1)c(=O)n2-c1ccc(Cl)cc1
  110 | i | 0.88 | -53 | 47 | -2 | 0.2

In the list so far, 8 contain an NH in an aromatic ring:
Value order – RGS16-Gao HTS | HSV augment | HSV augment primary fold | INS promoter inh | INS promoter inh cell count | PKD1 kinase inh | GALR2 ag
> COc1ccc(NC(=O)c2nc[nH]c2C(=O)N[C@@H](C)c2ccccc2)cc1
  97 | i | 0.91 | · | · | · | ·
> CCOc1cccc(-c2nc(C(N)=O)c3[nH]c(=O)n(-c4cccc(Cl)c4)c3n2)c1O
  97 | i | 0.6 | · | · | 3 | -0.7
> Cc1cncn1CCc1nc2c3ccccc3nc(=S)n2[nH]1
  · | · | · | -13 | 168 | 0 | -0.3
> COc1ccc(OC)c(-n2c(=S)[nH]c3c(sc(=S)n3-c3ccccc3C)c2=O)c1
  100 | i | 0.94 | 39 | 102 | 5 | ·
> COc1ccc2nc(SCC(=O)Nc3ccccc3)[nH]c2c1
  102 | i | 0.97 | 23 | 97 | -9 | -1.1
> O=C(CSc1nnc2c(n1)[nH]c1ccc(F)cc12)N1CCOCC1
  97 | i | 1.1 | · | · | -2 | ·
> CCCCn1c(=O)[nH]c2nc3cc(NC(C)=O)ccc3nc2c1=O
  99 | i | 1.2 | · | · | · | ·
> CCCCOC(=O)C(C)Nc1n[nH]c(=O)[nH]c1=O (stereo unspecified)
  100 | i | 1 | 13 | 94 | -9 | -2.7
